Bioassay records: PubChem BioAssay, National Center for Advancing Translational Sciences (NCATS)
LASV entry inh = Lassa virus entry inhibition; AID 540256; Potency, µM (highest dose often 37.9 µM), without a hit: at the highest dose activity change, negative = inhibition, hits mostly inhibitors; Lassa virus pseudotype entry inhibition, cell reporter; control for the full effect not named in the record; 300,000 compounds, 1.2% hits; active means well fitted inhibition curve with a large enough effect; inconclusive means small, poorly fitted or top-dose-only effect, or effect the other way; inactive means flat fitted curve, though single readings scatter; tested in HEK293 cells; note: % is set by controls: 0 for no effect and ±100 for the full control effect; nearly all actives have a fitted effect of over 50% in size; luciferase read-out
SARS PLpro yeast = blocks SARS-CoV papain-like protease in a yeast assay; S. cerevisiae expressing SARS-CoV PLpro, growth rescue; control for the full effect not named in the record; AID 485353; 330,000 compounds, 0.19% hits; Potency, µM (titrated, usually from 32.9 µM), for inactives: top-dose activity, positive = growth rescue; note: 0% is about no effect; nearly all actives have a fitted effect of over 55% in size; growth read by luminescence after 48 h
NS1 inh = blocks influenza NS1 protein function. 270,000 compounds, 0.4% hits. Potency, µM (series often up to 46.1 µM), for inactives: at the highest dose activity, positive = more growth. S. cerevisiae slowed by influenza A NS1, growth recovery by OD600; note: actives are rising curves; nearly all actives have a fitted effect of over 50% in size
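In this qHTS, NS1 from influenza A is expressed in budding yeast, where it slows growth. Cells are switched from glucose to 2% galactose medium (pH 6.0, -URA), treated with compound, and growth recovery is read at OD600.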
RE007 growth inh = less growth of the S. pombe RE007 Vpr strain | 360,000 compounds, 0.21% hits | S. pombe RE007 Vpr strain, BacTiter-Glo ATP luminescence, 24 h; control for the full effect not named in the record | Potency, µM (highest dose often 92.2 µM), inactives show at the highest dose activity change, negative = less growth | AID 651644; active = well fitted falling curve with a large enough effect; inconclusive = small, poorly fitted or top-dose-only effect; inactive = no such curve, though single readings can be large or run the other way;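 note: % is set by controls: 0 for no effect and ±100 for the full control effect; nearly all actives have a fitted effect of over 50% in size; the assay follows cell death caused by Vpr and the record does not say whether a fall means rescue or toxicity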
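Fission yeast RE007 carrying one integrated HIV-1 vpr copy, seeded at OD 0.01 in PMG+AL medium with 23 nL pinned compound. Grown 24 h at 30 degrees; viability read by BacTiter-Glo luminescence after 5 min.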
MARV entry inh = Marburg virus entry inhibition; Marburg virus pseudotyped entry inhibition, cell reporter; control for the full effect not named in the record; about a third of the inactives were read at about 46 µM; Potency, µM (highest dose often 37.8 µM), for the others: top-dose activity change, negative = inhibition, hits mostly inhibitors; 300,000 compounds, 1.8% hits; active = well fitted inhibition curve with a large enough effect; inconclusive = small, poorly fitted or top-dose-only effect, or effect the other way; inactive = flat fitted curve, though single readings scatter; tested in HEK293 cells; about a fifth of its hits are not listed in these tables; note: % is set by controls: 0 for no effect and ±100 for the full control effect; luciferase read-out
Cruzain noTriton = inhibitors of Trypanosoma cruzi cruzain without detergent; P25779; purified cruzain, Z-FR-AMC fluorescence, no detergent; Potency, µM, for the others: max response, negative = inhibition, actives largely listed as inhibitors; 200,000 compounds, 2.3% hits; AID 1476; active = well fitted curve in the direction sought with a large enough effect; inconclusive = small, poorly fitted or top-dose-only effect, or another doubt; inactive = no such curve, though single readings can be large; an effect the other way counts as inactive or inconclusive;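 note: plate controls were enzyme without inhibitor for no effect and buffer without enzyme for full effect; nearly all actives have a fitted effect of over 40% in size; top concentration of the series not given in the record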
Target sequence (P25779 123-467 limits assumed): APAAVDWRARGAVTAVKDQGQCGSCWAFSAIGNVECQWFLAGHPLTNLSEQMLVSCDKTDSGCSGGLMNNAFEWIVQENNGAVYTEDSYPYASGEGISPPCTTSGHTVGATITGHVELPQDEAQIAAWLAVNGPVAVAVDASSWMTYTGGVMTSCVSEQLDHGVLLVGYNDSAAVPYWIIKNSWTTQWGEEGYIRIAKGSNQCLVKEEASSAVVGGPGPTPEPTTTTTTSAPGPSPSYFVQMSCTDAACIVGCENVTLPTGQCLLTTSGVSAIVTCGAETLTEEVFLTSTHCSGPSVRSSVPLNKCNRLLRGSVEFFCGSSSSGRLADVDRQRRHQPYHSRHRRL
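Purified cruzain at 1.5 nM, pre-incubated 15 min with compound at room temperature in 100 mM sodium acetate pH 5.5, 5 mM DTT, 0.00005% Triton X-100. Reaction started with 2 uM Z-FR-AMC; AMC fluorescence increase over 60 s gives rate.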
StopGo reporter = lowers the luciferase signal of an FMDV 2A StopGo reporter | human cells with a luciferase reporter of 2A StopGo recoding; control for the full effect not named in the record | Potency, µM (doses to about 57.9 µM), without a hit: top-dose signal change, negative = less light | 410,000 compounds, 1.2% hits; active = well fitted falling curve with a large enough effect; inconclusive = small, poorly fitted or top-dose-only effect; inactive = no such curve, though single readings can be large or run the other way; tested in HEK293T cells; note: % is set by controls: 0 for no effect and ±100 for the full control effect; nearly all actives have a fitted effect of over 45% in size; luciferase light after 4 h
Cruzain Triton = inhibitors of Trypanosoma cruzi cruzain with detergent; 200,000 compounds, 0.43% hits; purified cruzain, Z-FR-AMC fluorescence, 0.01% Triton; Potency, µM, for the others: max response, negative = inhibition, usual class: inhibitors; AID 1478; P25779; active = well fitted curve in the direction sought with a large enough effect; inconclusive = small, poorly fitted or top-dose-only effect, or another doubt; inactive = no such curve, though single readings can be large; an effect the other way counts as inactive or inconclusive;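 note: plate controls were neutral wells for no effect and buffer without enzyme for full effect; nearly all actives have a fitted effect of over 40% in size; top concentration of the series not given in the record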
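Cysteine protease activity tested under reducing, mildly acidic conditions (100 mM sodium acetate pH 5.5, 5 mM DTT) plus 0.01% Triton X-100. Cruzain 1.5 nM; substrate Z-FR-AMC 2 uM; 15 min compound preincubation at room temperature.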
The depositor's hits bear a star; ? = inconclusive; · = not tested or not shown; & = joins results of further samples; [ ] = dose if it differs, or a comment. Unless noted, calls come from the whole dose curve; as a rule, active means well fitted rising curve with a large enough effect; inconclusive means small, poorly fitted or top-dose-only effect; inactive means no such curve, though single readings can be large or run the other way. Potency is the fitted concentration of half-maximal effect.

SMILES	LASV entry inh	SARS PLpro yeast	NS1 inh	RE007 growth inh	MARV entry inh	Cruzain noTriton	StopGo reporter	Cruzain Triton
CCCCCCc1c(C)c2ccc(OCC(=O)N[C@@H](Cc3ccccc3)C(=O)O)cc2oc1=O	·	-10%	3%	7%	·	·	-15%	·
Cc1sc2nc(SCC(=O)NCc3ccco3)[nH]c(=O)c2c1C	·	10%	-1%	-6%	·	?	-19%	-6.9%
Cc1cc(Oc2ccc(C(C)(C)C)cc2)nc(N2CCOCC2)n1	5µM*	7%	-4%	-16%	-23%	?	?	-14%
Cc1ccc(NC(=O)COC(=O)c2ccccc2F)cc1S(=O)(=O)N1CCCCC1	25%	-1%	·	28%	?	·	-13%	·
O=C(CN1CCc2ccccc2C1)Nc1ccccc1F	?	6%	?	1%	?	·	-20%	·
Cc1ccc(-n2nc(CO)c(C(=O)NC(C)CCCc3ccccc3)n2)cc1C (configuration not stated)	?	·	·	·	-11%[46.1 µM]	-11%	-21%	-3.6%
CN(C)c1ccc2c(c1)Sc1cc(N(C)C)ccc1N2C(=O)c1ccccc1	-13%[46.1 µM]	-1%	4%	-4%	?	·	-15%	·
CC(C)(C)c1nn(-c2ccccc2)c2[nH]c(=O)c(C=O)cc12	·	-13%	-49%	-22%	·	·	-23%	·
CC(NC(=O)c1ccc(S(=O)(=O)N(C)C)cc1)c1ccccc1 (configuration not stated)	4%	1%	-4%	-4%	5%	8%	-29%	10%
COCc1nn2cc(-c3ccc(C)cc3)nc2s1	-1%[46.1 µM]	·	·	·	?	-9%	-43%	-4.1%
O=C(CN1CCN(c2ccccn2)CC1)Nc1cccc(F)c1	·	-1%	1%	1%	·	·	-18%	·
O=C(c1cc(=O)c2ccccc2o1)N1CCN(c2ccccc2)CC1	?	-2%	·	-19%	?	·	8%	·
COc1cccc2cc(C(=O)Nc3cc(C)cc(C)c3)/c(=N/NS(=O)(=O)c3ccccc3)oc12	·	2%	10%	11%	·	·	-21%	·
CCOC(=O)CSc1n[nH]c(NC(=O)c2cccc(C(F)(F)F)c2)n1	3%	-11%	15%	6%	-2%	-5%	-5%	4.9%
CCn1c(O)c(/C=N/n2cnnc2)sc1=S	5%	3%	-21%	-7%	-4%	1%	9%	0.9%
COc1ccc(NC(=O)c2c(N)cnn2C)cc1	29%[46.1 µM]	-1%	-3%	-3%	?	·	16%	·
CC(=O)c1cccc(NC(=O)COC(=O)[C@@H](NC(=O)OCc2ccccc2)C(C)C)c1	11%	-37%	-37%	6%	?	25µM*	-12%	16µM*
CCC[N+]12CCC(CC1)C(C(O)(c1ccccc1)c1ccccc1)C2 (configuration not stated)	·	1%	3%	-7%	·	·	-24%	·
COc1ccccc1C(=O)Nc1ccc2c(c1)nc(CCNC(=O)c1ccccc1)n2C	?	-1%	4%	-12%	?	·	7%	·
Cc1ccc(-c2nn(-c3ccccc3)cc2/C=N/NC(=O)c2ccc3c(c2)OCO3)cc1	-5%	-10%	10%	6%	-18%	25µM*	-1%	1.3%

Among those listed so far, these contain two or more sulfur atoms.
SMILES	LASV entry inh	SARS PLpro yeast	NS1 inh	RE007 growth inh	MARV entry inh	Cruzain noTriton	StopGo reporter	Cruzain Triton
Cc1sc2nc(SCC(=O)NCc3ccco3)[nH]c(=O)c2c1C	·	10%	-1%	-6%	·	?	-19%	-6.9%
CCn1c(O)c(/C=N/n2cnnc2)sc1=S	5%	3%	-21%	-7%	-4%	1%	9%	0.9%

The list continues.
SMILES	LASV entry inh	SARS PLpro yeast	NS1 inh	RE007 growth inh	MARV entry inh	Cruzain noTriton	StopGo reporter	Cruzain Triton
Cn1cnc2c1c(=O)n(Cc1ccccc1C#N)c(=O)n2C	?	1%	19%	-10%	?	·	-16%	·
c1ccc(CN2CCN(C3CCCSc4ccccc43)CC2)cc1 (configuration not stated)	?	·	·	-11%	16µM*	·	?	·
COc1ccccc1/C=C/C=C1N=C(/C=C/c2ccc(Cl)cc2)OC/1=O	?	-2%	27%	0%	-18%	16µM*	-13%	-21%
Cc1ccc(C)c(C(C)NC(=O)c2ccc(Br)o2)c1 (configuration not stated)	0%	0%	5%	20%	?	·	-21%	·
Cc1cc(Br)ccc1NC(=O)c1cnc(N2CCN(c3ccccn3)CC2)c2ccccc12	16µM*	-10%	·	7%	9.2µM*	·	?	·
CCOC1(OCC)N=C(N)C2(C#N)C(c3ccc(NC(C)=O)cc3)C12C#N (configuration not stated)	5%	4%	0%	6%	1%&2%	6%	-19%	-0.6%
Cc1ccc(Cn2cccc(C(=O)Nc3ccc4c(c3)OCCO4)c2=O)cc1	?	·	·	·	·	-12%	0%	-2.5%
COc1ccc(CCNC(=O)CCCCn2c(=O)c3ccccc3n(Cc3ccccc3Cl)c2=O)cc1OC	-8%[46.1 µM]	·	·	·	-11%[46.1 µM]	?	?	-2.0%
COc1ccccc1/C=C/C(=O)Nc1cccc(S(=O)(=O)NC2=NCCCCC2)c1	?	0%	·	1%	11µM*	·	-10%	·
Cc1cccc(NC(=O)c2cc(=O)n(Cc3ccccc3)c(=O)[nH]2)c1	-8%[46.1 µM]	-5%	·	-2%	16%[46.1 µM]	·	3%	·
CC(C)(C)c1[nH]c2ccccc2c1/C=N/O	2%	-4%	-14%	15%	-8%	1%	-8%	-0.6%
CCc1c(N)nc(N)nc1Nc1ccccc1C	7%	·	·	7%	-16%	·	-27%	·
Cc1ccccc1Nc1cc(C(=O)NCC2CCCO2)c2ccccc2n1 (configuration not stated)	·	-1%	-5%	-6%	·	·	-12%	·
CC(=O)N/C(=C/c1ccc(OS(=O)(=O)c2ccc(C)cc2)cc1)C(=O)NCCCO	·	1%	-1%	8%	·	·	12%	·
CN(C)CCN(Cc1ccccc1)c1nccc(N(C)C)c1C#N	-12%	-4%	-3%	-17%	?	-11%	·	1.4%
O=C1Cc2ccccc2Sc2cc(OCCCN3CCCCC3)ccc21	?	10%	-11%	9%	?	-2%	-17%	-5.3%
COc1ccccc1-c1nc(C#N)c(N2CCN(C(c3ccccc3)c3ccccc3)CC2)o1	13%	3%	-1%	5%	?	7.9µM*	-11%	25µM*
O=C(Nc1ccc(C(=O)N2CCOCC2)cc1)c1ccccc1[N+](=O)[O-]	3%	7%	15%	-12%	36%	·	-14%	·
CCn1nc(NS(=O)(=O)c2ccccc2)c2cc3ccccc3nc21	?	-3%	6%	-12%	24%[46.1 µM]	·	24%	·
Cc1ccccc1OCCC(=O)OCC(=O)Nc1cc(S(=O)(=O)N2CCOCC2)ccc1Cl	8%[46.1 µM]	-1%	·	1%	10%[46.1 µM]	·	-1%	·
Nc1nonc1-n1nnc(C(=O)N/N=C/c2c(Cl)cccc2Cl)c1CN1CCOCC1	0%[46.1 µM]	1%	19%	5%	1%[46.1 µM]	·	9%	·
N#Cc1ccc(-c2ccco2)nc1SCC(=O)c1ccc(Cl)cc1	?	2%	-5%	-1%	?	2%	-18%	1.0%
COc1cccc(C(=O)NCc2ccc(N3CCN(C(=O)OC(C)(C)C)CC3)cc2)c1	1%	-1%	-1%	6%	-9%	1%	?	-1.3%
COc1ccc(OC)c(CCNC(=O)c2c(C)oc3ncn(C)c(=O)c23)c1	0%[46.1 µM]	·	·	·	·	-9%	-3%	-0.7%
O=C(CSc1nnc(CNc2ccc(F)cc2)n1CC1CCCO1)Nc1ccccc1 (configuration not stated)	-11%	1%	4%	2%	-24%	19%	22%	-2.9%
CC(C)(C)c1ccc(-n2nc(C#N)c(Cl)cc2=O)cc1	?	-24%	·	?	?	·	13µM*	·
COc1ccc(/C=C2\SC(=N)N(c3ccc(F)cc3)C2=O)cc1	?	1%	2%	17%	2%[46.1 µM]	·	-2%	·
CCOc1ccccc1NC(=O)CSc1nnc(-c2ccncc2)o1	1%	-1%	·	5%	24%[46.1 µM]	·	-20%	·
O=C(NCc1cccs1)C1CCC(CNS(=O)(=O)c2cccs2)CC1 (configuration not stated)	11%	4%	3%	12%	1%	-5%	-10%	0.8%
CCC(=O)Nc1ccc(NC(=O)/C=C/c2ccc(Cl)cc2)cc1	-8%	14%	3%	6%	-3%	?	-10%	1.9%
CN(CC(=O)Nc1ccccc1Sc1ccccc1)C1CCCCC1	·	-5%	·	-11%	-14%[46.1 µM]	·	-28%	·
COc1ccc(NS(=O)(=O)c2ccc(N3CCCCC3)c(NC(=O)C(C)NC(N)=O)c2)cc1 (configuration not stated)	-9%	2%	·	6%	-4%	·	19%	·
CN(Cc1nccs1)C(=O)c1cc(COc2cccc3cnccc23)on1	·	-5%	-11%	-7%	·	·	?	·
CCS(=O)(=O)C(C)(CCl)C(=O)Nc1ccc(C(=O)OC)cc1 (configuration not stated)	27%	-1%	1%	-5%	?	·	-10%	·
CS(=O)(=O)N1CCN(c2ccc(NC(=O)c3ccc(-c4ccc(Cl)cc4)o3)cc2)CC1	?	?	-2%	3%	?	?	-3%	2.6%
O=C(Nc1nnc(C23CC4CC(CC(C4)C2)C3)s1)c1ccco1	?	1%	0%	0%	20%[46.1 µM]	1%	26%	1.7%

A stretch from the list above, for reference:
SMILES	LASV entry inh	SARS PLpro yeast	NS1 inh	RE007 growth inh	MARV entry inh	Cruzain noTriton	StopGo reporter	Cruzain Triton
CN(Cc1nccs1)C(=O)c1cc(COc2cccc3cnccc23)on1	·	-5%	-11%	-7%	·	·	?	·
CCS(=O)(=O)C(C)(CCl)C(=O)Nc1ccc(C(=O)OC)cc1 (configuration not stated)	27%	-1%	1%	-5%	?	·	-10%	·
CS(=O)(=O)N1CCN(c2ccc(NC(=O)c3ccc(-c4ccc(Cl)cc4)o3)cc2)CC1	?	?	-2%	3%	?	?	-3%	2.6%
O=C(Nc1nnc(C23CC4CC(CC(C4)C2)C3)s1)c1ccco1	?	1%	0%	0%	20%[46.1 µM]	1%	26%	1.7%

This is a random part of the collection; 4.7% or so of the library scored in one or more.
